Assay outcomes from PubChem BioAssay.
MITF inhib: MITF inhibition; hit rate 0.28% among 37,000; TRPM1 promoter luciferase, luminescence, 24 h; inhibition, % (concentration not given with the values); AID 2240;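 active = most replicates at 85% or more, or half of them and the mean; inconclusive = half reach 85% but not the mean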;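 also: human melanocyte line stably carrying TRPM1 promoter luciferase reporter; 0% = vehicle wells and 100% = a positive control; the first replicate is given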
YB-1 expr inh: YB-1 expression inhibition; delta delta Cp (YB-1 minus CDIP) (concentration not given with the values); U2OS, qRT-PCR YB-1 vs CDIP delta delta Cp, 16 h; stronger effect = higher value; zero = DMSO, each unit about twofold; AID 434959; hit rate 0.37% among 30,000;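 active = delta delta Cp rounded down to an integer at or above 3, about 3 SD of DMSO wells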;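 also: higher means less YB-1 transcript or more CDIP transcript relative to DMSO; stock transfer was 100 nL into about 100 µL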
PD-1 reverse act: activators reversing PD-1 mediated T-cell inhibition; 29,000 tested, under 10 active; activation, % (test concentration not listed); primary human CD4 T cells, PD-L1 beads, CellTiter-Glo 96 h;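 active = replicate mean of 50% or more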;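 also: 0% = median vehicle wells and 100% = positive control; 100 nL library stock added to about 50 µL; numbers are from one replicate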
Shh pathway inh: blocks Sonic Hedgehog signaling; Shh-LIGHT2 Gli-luciferase reporter, 30 h; inhibition, % (no concentration beside the values); hit rate 2.1% among 22,000;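 active = replicate mean of 65% or more; inconclusive = mean lower but half the replicates past it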;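 also: pathway switched on by Shh-conditioned medium diluted 1 in 25 in low serum; 100 nL library stock added to about 40 µL; 0% = median of neutral wells and 100% = positive control level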
* marks the source's active call; other numbers are inactive results; ? = inconclusive; . = no result given. These rows are one share of the data; rates above refer to the full screens.

SMILES | MITF inhib | YB-1 expr inh | PD-1 reverse act | Shh pathway inh
Cc1ccc(C)c(C(Nc2ccccn2)c2cc(Cl)c3cccnc3c2O)c1 (stereo not given) | 68.0 | . | -9.9 | .
C[C@H](CO)N1C[C@H](C)[C@@H](CN(C)Cc2ccc(-c3ccccc3)cc2)Oc2ccc(NC(=O)CCC(F)(F)F)cc2C1=O | -0.5 | 0.382 | 1.5 | .
O/N=C/c1c(O)c(Br)cc2oc3c(c12)CCCC3 | 3.4 | 0.252 | -3.7 | 19.9
Cc1ccc(S(=O)(=O)Nc2ccc3c(c2)CC(=O)N([C@H](C)CO)C[C@@H](C)[C@H](CN(C)S(=O)(=O)c2cccs2)O3)cc1 | -1.3 | 0.0327 | 0.7 | 18.2
Cc1ccc(NS(=O)(=O)c2cccc(C(=O)Nc3ccccc3)c2)cc1 | -0.3 | 0.0963 | 1.1 | .
O=C(CCc1ccc(O)cc1)c1c(O)cc(O)cc1O | 0.1 | 0.12 | . | -40.0
CS(=O)(=O)N(CC(=O)Nc1cc(Cl)ccc1Oc1ccccc1)c1ccc(F)c(Cl)c1 | 11.4 | . | -1.6 | .
CC(C)C(=O)Nc1ccc([N+](=O)[O-])c(C(F)(F)F)c1 | 8.4 | 0.069 | -1.3 | -11.8
C[C@H]1CN([C@@H](C)CO)C(=O)c2cccc(NS(=O)(=O)c3cccs3)c2O[C@@H]1CN(C)Cc1ccncc1 | -4.6 | 0.208 | 0.3 | -25.0
Cc1c(C)c(C)c(C(=O)CCc2cccc(NC(=O)C3CCC3)c2)c(C)c1C | 5.8 | 0.422 | -0.1 | -6.7
CC(C)C(=O)NC(c1cccc([N+](=O)[O-])c1)c1c(O)ccc2ccccc12 (stereo not given) | 2.5 | . | -0.8 | .
C[C@@H]1CN([C@@H](C)CO)C(=O)c2cc(NC(=O)Cn3cnnn3)ccc2O[C@@H]1CN(C)Cc1ccc(Oc2ccccc2)cc1 | 3.6 | 0.192 | 0.4 | 20.4
CC(=O)Nc1ccc(S(=O)(=O)Nc2cccc(-c3cn4ccc(C)cc4n3)c2)cc1 | -14.9 | . | 0.8 | .
CC(=O)c1ccc(NC(=O)CSc2nc3cc(C)c(C)cc3[nH]2)cc1 | -31.4 | . | -1.9 | .
O=C(CSc1nnc(-c2ccc(Cl)cc2)n1-c1ccccc1)Nc1ccccc1C(F)(F)F | 10.8 | . | -0.1 | .
C[C@H]1CN([C@@H](C)CO)C(=O)Cc2cc(NS(C)(=O)=O)ccc2O[C@@H]1CN(C)Cc1ccc(Oc2ccccc2)cc1 | -1.0 | -0.437 | -5.6 | 16.6
Cc1ccc(S(=O)(=O)Nc2ccc3c(c2)C(=O)N([C@H](C)CO)C[C@H](C)[C@H](CN(C)CC2CCCCC2)OCCCC[C@@H](C)O3)cc1 | -8.7 | 0.108 | -4.4 | 28.7
C[C@@H]1CN([C@H](C)CO)C(=O)c2cccc(NC(=O)Nc3cccc4ccccc34)c2O[C@@H]1CN(C)S(=O)(=O)c1ccccc1 | 4.3 | -0.0137 | 0.1 | 45.9
COc1ccc(C(=O)c2oc3ccccc3c2NC(=O)COc2ccc(C)cc2)cc1 | -44.7 | . | 2.8 | .
COc1cc2nc3occc3c(OC)c2cc1OCC(OC(C)=O)C(C)(C)OC(C)=O (stereo not given) | -10.9 | 1.72 | 2.3 | -13.7
CC(C)(O)CCC(=O)C(C)(O)C1C(O)CC2(C)C3CC=C4C(CC(OC5OC(CO)C(O)C(O)C5O)C(O)C4(C)C)C3(C)CCC12C (stereo not given) | . | 0.34 | . | -19.5
COc1ccc2cc(CCC(C)=O)ccc2c1 | -11.3 | 0.166 | 2.9 | -119.6
CCc1c(C)sc(NC(=O)C2CC(c3cc(Cl)c(OC)cc3OC)=NO2)c1C#N (stereo not given) | -6.0 | . | 0.7 | .
C[C@H]1CN([C@@H](C)CO)C(=O)c2cccc(NC(=O)Nc3ccc4c(c3)OCO4)c2O[C@H]1CN(C)Cc1ccc(C(=O)O)cc1 | -4.1 | -0.239 | . | -3.1
COc1ccc(OC)c(-n2c(=S)[nH]c3cc(C(=O)Nc4ccc(C)c(Cl)c4)ccc3c2=O)c1 | 0.4 | 0.252 | -0.3 | -29.9
C[C@H](CO)N1C[C@H](C)[C@H](CN(C)C(=O)Nc2ccc(C(F)(F)F)cc2)Oc2ccc(NC(=O)CCC(F)(F)F)cc2C1=O | -0.3 | -0.0273 | . | 0.5
C[C@H](CO)N1C[C@H](C)[C@@H](CN(C)Cc2ccncc2)Oc2ccc(NS(=O)(=O)c3ccccc3)cc2C1=O | -16.2 | -0.181 | -0.9 | .
CCCN1Cc2cccc(C(N)=O)c2C1=O | -13.4 | -0.177 | 0.5 | -42.7
C[C@H](CO)N1C[C@H](C)[C@@H](CN(C)C(=O)Nc2ccccc2)Oc2c(NC(=O)c3ccc(-c4nccs4)cc3)cccc2C1=O | -8.4 | -0.47 | 0.2 | -56.1
Cc1ccc(S(=O)(=O)Nc2ccc3c(c2)C(=O)N([C@@H](C)CO)C[C@H](C)[C@@H](CN(C)C(=O)Nc2c(C)noc2C)O3)cc1 | -2.7 | -0.11 | 0.9 | 3.8

2 entries from above in another layout.
CCc1c(C)sc(NC(=O)C2CC(c3cc(Cl)c(OC)cc3OC)=NO2)c1C#N (stereo not given)
  MITF inhib: -6.0	YB-1 expr inh: .	PD-1 reverse act: 0.7	Shh pathway inh: .

C[C@H]1CN([C@@H](C)CO)C(=O)c2cccc(NC(=O)Nc3ccc4c(c3)OCO4)c2O[C@H]1CN(C)Cc1ccc(C(=O)O)cc1
  MITF inhib: -4.1	YB-1 expr inh: -0.239	PD-1 reverse act: .	Shh pathway inh: -3.1

The list continues.
SMILES | MITF inhib | YB-1 expr inh | PD-1 reverse act | Shh pathway inh
Cc1ccc(S(=O)(=O)Nc2cccc3c2O[C@@H](CN(C)S(=O)(=O)c2cccs2)[C@H](C)CN([C@H](C)CO)C3=O)cc1 | -2.2 | -0.0437 | 1.2 | -25.4
COc1ccc(OCC(=O)Nc2cccc(C(=O)O)c2C)cc1 | -47.1 | . | 2.4 | .
C[C@@H]1CCCCO[C@@H](CN(C)C(=O)c2ccncc2)[C@@H](C)CN([C@H](C)CO)C(=O)c2cc(NC(=O)C3CCCCC3)ccc2O1 | -14.9 | -0.0453 | -1.1 | -20.5
C[C@H]1CN([C@@H](C)CO)C(=O)Cc2cc(NC(=O)CCC(F)(F)F)ccc2O[C@H]1CN(C)S(=O)(=O)c1ccc(Cl)cc1 | 14.4 | -0.00226 | . | -48.7
Cc1noc(C)c1NC(=O)N(C)C[C@H]1Oc2ccc(NC(=O)Nc3ccc4c(c3)OCO4)cc2CC(=O)N([C@@H](C)CO)C[C@@H]1C | -6.0 | -0.0576 | 2.2 | -19.2
CS(=O)(=O)N(CC(=O)Nc1ccc(Br)cc1)c1cc(Cl)cc(Cl)c1 | 3.5 | . | -1.3 | .
CCNC(=S)Nc1sc2c(c1C#N)CCC(C)C2 (stereo not given) | -56.6 | -0.137 | -0.2 | -13.5
C[C@@H]1CN([C@@H](C)CO)C(=O)c2cc(NC(=O)NC3CCCCC3)ccc2O[C@@H]1CN(C)S(C)(=O)=O | 3.8 | -0.0866 | -0.2 | .
C[C@@H]1CN([C@H](C)CO)C(=O)c2cc(NC(=O)CCCN(C)C)ccc2O[C@H]1CN(C)S(=O)(=O)c1cn(C)cn1 | -4.9 | 0.0586 | 1.1 | 3.3
C[C@@H]1CN([C@@H](C)CO)C(=O)c2cccc(NC(=O)c3nc4ccccc4s3)c2O[C@H]1CN(C)S(C)(=O)=O | -0.2 | 0.563 | -0.1 | -7.1

Copied from the listing (two entries):
SMILES | MITF inhib | YB-1 expr inh | PD-1 reverse act | Shh pathway inh
Cc1ccc(S(=O)(=O)Nc2cccc3c2O[C@@H](CN(C)S(=O)(=O)c2cccs2)[C@H](C)CN([C@H](C)CO)C3=O)cc1 | -2.2 | -0.0437 | 1.2 | -25.4
COc1ccc(OCC(=O)Nc2cccc(C(=O)O)c2C)cc1 | -47.1 | . | 2.4 | .

Further results follow:
SMILES | MITF inhib | YB-1 expr inh | PD-1 reverse act | Shh pathway inh
COc1ccc(CN(C)C[C@@H]2OCCCC[C@@H](C)Oc3ccc(NS(=O)(=O)c4ccccc4)cc3C(=O)N([C@H](C)CO)C[C@@H]2C)cc1 | -15.6 | -0.42 | . | .
CCc1ccc2oc(-c3cccc(NC(=O)COc4ccccc4)c3)nc2c1 | -13.4 | . | 2.2 | .
CNC[C@H]1Oc2ccc(NC(=O)Cn3cnnn3)cc2C(=O)N([C@H](C)CO)C[C@@H]1C | -0.4 | -0.112 | 1.2 | -31.2
C=Cc1ccc(O[C@@H]2O[C@H](CO[C@@H]3O[C@@H](C)[C@H](O)[C@@H](O)[C@H]3O)[C@@H](O)[C@H](O)[C@H]2O)cc1 | -7.2 | 0.0984 | 1.4 | -43.2
Cc1ccc(S(=O)(=O)N(C)C[C@H]2Oc3ccc(NC(=O)Nc4c(C)noc4C)cc3C(=O)N([C@H](C)CO)C[C@H]2C)cc1 | 6.8 | -0.346 | 0.7 | -5.3
COc1ccc(S(=O)(=O)N(C)C[C@@H]2Oc3ccc(NC(=O)Nc4ccc5c(c4)OCO5)cc3C(=O)N([C@@H](C)CO)C[C@H]2C)cc1 | -23.2 | -0.0258 | 1.2 | 32.6
C[C@@H]1CN([C@H](C)CO)C(=O)Cc2cc(NC(=O)Nc3cccc4ccccc34)ccc2O[C@@H]1CN(C)Cc1ccc(Cl)c(Cl)c1 | 4.7 | -0.124 | -0.7 | -6.0
C[C@@H]1CN([C@@H](C)CO)C(=O)c2cc(NC(=O)CCCCCC(=O)Nc3ccccc3N)ccc2O[C@@H]1CN(C)S(C)(=O)=O | -15.7 | -0.121 | 3.1 | .
Cc1ccc(NC(=O)COc2ccc(CO)cc2Cl)cc1 | -85.4 | . | -1.6 | .
C[C@@H]1CN([C@H](C)CO)C(=O)Cc2cc(NS(=O)(=O)c3ccc(F)cc3)ccc2O[C@@H]1CN(C)Cc1ccncc1 | -12.7 | -0.00182 | 1.0 | -12.4
CCOc1ccccc1CNCCN1CCOCC1 | -8.8 | . | 0.7 | .
O=C(Cc1ccccc1)c1ccccc1C(=O)NCc1cccs1 | 0.0 | -0.596 | -4.7 | -17.1
COc1cc([N+](=O)[O-])ccc1NC(=O)CN(C)S(=O)(=O)c1ccc(Br)cc1 | 3.9 | . | -0.4 | .
O=C(CCC1COc2ccccc2O1)Nc1cccnc1 (stereo not given) | -25.5 | . | 0.6 | .
C/C(=C\CC[C@@H](C)[C@H]1CC(OC2OCC(O)C(O)C2O)[C@@]2(C)C3CC[C@H]4C(C)(C)[C@@H](O[C@@H]5OC(CO)C(O)C(O)C5OC5OC(CO)C(O)C(O)C5O)CC[C@@]45C[C@@]35CC(O)[C@]12C)C(=O)OC1OC(CO)C(O)C(O)C1O (stereo not given in full) | 1.6 | -0.346 | -0.7 | -2.4
C[C@@H]1O[C@@H](O[C@@H]2[C@@H](O)[C@H](C)O[C@@H](OCC3OC(Oc4c(-c5ccc(O)c(O)c5)oc5cc(O)cc(O)c5c4=O)C(O)C(O)C3O)[C@@H]2O)[C@H](O)[C@H](O)[C@H]1O (stereo not given in full) | . | 0.909 | . | 8.1
CCOC(=O)c1c(CN(C)C)n(-c2ccccc2)c2cc(Br)c(OC)cc12 | -13.8 | 0.0164 | -2.6 | ?
Cc1ccc(S(=O)(=O)Nc2ccc3c(c2)CC(=O)N([C@@H](C)CO)C[C@@H](C)[C@@H](CN(C)S(=O)(=O)c2c(C)noc2C)O3)cc1 | -19.6 | -0.0908 | -0.9 | -15.4
C[C@H]1CN([C@@H](C)CO)C(=O)c2cc(NS(=O)(=O)c3ccccc3)ccc2O[C@@H]1CN(C)S(=O)(=O)c1ccc(Cl)cc1 | -12.4 | 0.469 | 0.7 | 11.2
Cc1ccc(-c2nc3cc(Cl)ccc3o2)cc1NC(=O)COc1ccccc1[N+](=O)[O-] | 22.0 | . | 2.5 | .
COC(=O)Nc1ccc(S(=O)(=O)N(C)C)cc1 | 12.6 | 0.908 | 1.3 | .
O=C(CCN1C(=O)c2ccccc2C1=O)Oc1ccc2c3c(c(=O)oc2c1)CCC3 | 9.5 | -0.029 | 2.2 | .
COc1ccc(S(=O)(=O)Nc2ccc3c(c2)CC(=O)N([C@@H](C)CO)C[C@H](C)[C@@H](CN(C)Cc2ccc(Cl)c(Cl)c2)O3)cc1 | 4.2 | 0.175 | 3.6 | 64.8
CC1CCC/C=C2\C(=O)C=CC3OC(/C=C/C=C/C=C/C(=O)O)=C(C(=O)O1)C23 (stereo not given) | -6.3 | 0.0119 | -31.2 | 13.5
C[C@H](CO)N1C[C@H](C)[C@H](CN(C)Cc2ccncc2)Oc2c(NS(=O)(=O)c3ccc(Cl)cc3)cccc2C1=O | -8.1 | -0.422 | -7.3 | -20.2
C[C@@H]1CN([C@H](C)CO)C(=O)c2cccc(NC(=O)c3ccncc3)c2O[C@H]1CN(C)S(=O)(=O)c1cccs1 | 2.9 | -0.228 | 1.4 | -16.7
C[C@@H]1CN([C@H](C)CO)C(=O)c2cc(NC(=O)Cn3cnnn3)ccc2O[C@H]1CN(C)S(=O)(=O)c1ccc(Cl)cc1 | 0.9 | -0.0795 | 0.2 | .
Cc1ccc(S(=O)(=O)N(C)C[C@@H]2OCCCC[C@@H](C)Oc3ccc(NC(=O)c4ccccc4)cc3C(=O)N([C@H](C)CO)C[C@@H]2C)cc1 | 46.5 | -0.243 | -3.4 | 34.2
